UUG fidelity: modulators of yeast start codon fidelity, primary screen, whole organism, S. cerevisiae, single point, plate reader; S. cerevisiae UUG-firefly luciferase reporter, luminescence/redox ratio; activity score, % at 18.7 µM; 0.13% of 350,000 active; AID 602363, 2012;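 active = replicate mean at a twofold rise or more, about +100% in these data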;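 also: firefly luciferase made from a UUG start codon reports start codon fidelity; reporter light over untreated wells divided by growth signal over untreated wells; some hits fall short of that in this replicate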
Numbers without * were called inactive. These rows are one share of the data; the hit share may differ from the screen's.

SMILES	UUG fidelity
COc1ccc(-c2ccc3c(c2)[C@@H]2[C@@H](CCN2S(=O)(=O)c2ccccc2F)[C@@H](CO)N3C)cc1	-15
O=C(NC[C@H]1[C@H](c2ccccc2)[C@H](CO)N1C(=O)C1CCC1)NC1CCCC1	-12
CS(=O)(=O)N1CCCCN2[C@H](CO)[C@H](c3ccc(Br)cc3)[C@@H]2C1	-7
COc1ccc(C(=O)N2C[C@H]3[C@@H](c4ccccc42)[C@@H](CO)N3C(=O)c2cccc(F)c2)cc1	-7
C[C@@H]1CN([C@H](C)CO)C(=O)c2cc(NS(=O)(=O)c3ccc(Cl)cc3)ccc2O[C@@H]1CN(C)Cc1ccc(C(=O)Nc2ccccc2N)cc1	-2
O=C(C1CC1)N1C[C@H]2[C@@H](c3ccccc31)[C@H](CO)N2C(=O)Cc1ccccn1	1
Cc1cccc(-c2ccc([C@@H]3[C@@H](CO)N4CCCCN(S(=O)(=O)c5ccccc5C)C[C@H]34)cc2)c1	3
Cc1noc(C)c1NC(=O)Nc1ccc2c(c1)C(=O)N([C@@H](C)CO)C[C@@H](C)[C@H](CN(C)Cc1ccc(-c3ccccc3)cc1)O2	-13
CCCC(=O)Nc1ccc2c(c1)C(=O)N(C)[C@@H]1CC[C@H](CC(=O)NCCc3ccccc3)O[C@H]1CO2	4
CCCC#Cc1ccc2c(c1)[C@H]1[C@H](CCN1S(=O)(=O)c1cccc(F)c1)[C@H](CO)N2C	-8
COc1ccc(C#Cc2ccc([C@@H]3[C@H]4CN(C(=O)Nc5ccc(F)cc5)CCCCN4[C@H]3CO)cc2)cc1	-7
CCN1[C@H](C(=O)N(C)C)[C@@H](CO)[C@@H]2Cn3c(ccc(C4=CCCCC4)c3=O)[C@@H]21	-5
CS(=O)(=O)Nc1ccc2c(c1)[C@@H]1C[C@H](CC(=O)NCc3ccc(-c4ccccc4)cc3)O[C@H](CO)[C@@H]1O2	1
CCCN1C[C@@H](C)[C@H](OC)CN(C)C(=O)c2cc(NS(=O)(=O)c3cn(C)cn3)ccc2OC[C@@H]1C	-3
COc1ccccc1C#Cc1ccc([C@@H]2[C@@H](CO)N3CCCCN(S(C)(=O)=O)C[C@@H]23)cc1	27

5 records picked at random from those above, as already listed:
SMILES	UUG fidelity
CCCC(=O)Nc1ccc2c(c1)C(=O)N(C)[C@@H]1CC[C@H](CC(=O)NCCc3ccccc3)O[C@H]1CO2	4
CS(=O)(=O)N1CCCCN2[C@H](CO)[C@H](c3ccc(Br)cc3)[C@@H]2C1	-7
O=C(C1CC1)N1C[C@H]2[C@@H](c3ccccc31)[C@H](CO)N2C(=O)Cc1ccccn1	1
COc1ccccc1C#Cc1ccc([C@@H]2[C@@H](CO)N3CCCCN(S(C)(=O)=O)C[C@@H]23)cc1	27
CS(=O)(=O)Nc1ccc2c(c1)[C@@H]1C[C@H](CC(=O)NCc3ccc(-c4ccccc4)cc3)O[C@H](CO)[C@@H]1O2	1

Continued.
SMILES	UUG fidelity
COC(=O)C[C@H]1CC[C@H]2[C@H](COc3ccc(NC(=O)Nc4c(C)noc4C)cc3C(=O)N2C)O1	-8
C[C@@H]1CN([C@@H](C)CO)C(=O)Cc2cc(NS(=O)(=O)c3ccc(Cl)cc3)ccc2O[C@H]1CN(C)C(=O)NC1CCCCC1	6
Cc1ccc(S(=O)(=O)N(C)C[C@H]2Oc3ccc(NC(=O)NC4CCCCC4)cc3CC(=O)N([C@@H](C)CO)C[C@H]2C)cc1	15
COc1cccc(NC(=O)N(C)C[C@H]2OCc3cnnn3CCCC(=O)N([C@H](C)CO)C[C@H]2C)c1	0
CN(C)CC(=O)Nc1ccc2c(c1)[C@@H]1C[C@H](CC(=O)N(C)C)O[C@@H](CO)[C@@H]1O2	-2
CO[C@@H]1CN(C)C(=O)c2cc(NC(=O)c3nc4ccccc4s3)ccc2OC[C@H](C)N(Cc2cccnc2)C[C@@H]1C	-1
CO[C@H]1CN(C)C(=O)c2ccc(NC(=O)Nc3cccc(F)c3)cc2OC[C@H](C)N(C(=O)Nc2c(C)noc2C)C[C@@H]1C	1
CCCNC(=O)N1[C@H](CO)[C@@H](c2ccccc2)[C@H]1CNC(C)=O	24
OC[C@H]1[C@H](c2ccc(Br)cc2)[C@@H]2CN(Cc3ccccn3)CCCCN12	-49
CC(C)NC(=O)Nc1ccc2c(c1)CC(=O)N([C@@H](C)CO)C[C@@H](C)[C@H](CN(C)Cc1ccc(C(=O)O)cc1)O2	-1
C[C@H]1CN([C@@H](C)CO)C(=O)c2cc(NC(=O)Nc3ccc(F)cc3)ccc2O[C@H]1CN(C)C(=O)Nc1cccc2ccccc12	-7
O=S(=O)(Cc1ccccc1)N1CCCCN2[C@H](CO)[C@@H](c3ccc(-c4cccnc4)cc3)[C@H]2C1	-3
CC(=O)N1CCCCN2[C@@H](CO)[C@H](c3ccc(-c4ccc(F)cc4)cc3)[C@@H]2C1	-2
O=C(C[C@H]1CC[C@H]2[C@@H](COC[C@H](O)CN2S(=O)(=O)c2ccccc2)O1)NCC1CCCCC1	18
CN(C)C(=O)c1ccc(-c2ccc3c(c2)[C@H]2[C@H](CCN2C(=O)c2ccc(F)cc2)[C@@H](CO)N3C)cc1	14

An excerpt from above in order of SMILES length, largest number first.
SMILES	UUG fidelity
C[C@@H]1CN([C@H](C)CO)C(=O)c2cc(NS(=O)(=O)c3ccc(Cl)cc3)ccc2O[C@@H]1CN(C)Cc1ccc(C(=O)Nc2ccccc2N)cc1	-2
CN(C)C(=O)c1ccc(-c2ccc3c(c2)[C@H]2[C@H](CCN2C(=O)c2ccc(F)cc2)[C@@H](CO)N3C)cc1	14
O=C(C[C@H]1CC[C@H]2[C@@H](COC[C@H](O)CN2S(=O)(=O)c2ccccc2)O1)NCC1CCCCC1	18
CCCC#Cc1ccc2c(c1)[C@H]1[C@H](CCN1S(=O)(=O)c1cccc(F)c1)[C@H](CO)N2C	-8
O=C(NC[C@H]1[C@H](c2ccccc2)[C@H](CO)N1C(=O)C1CCC1)NC1CCCC1	-12
OC[C@H]1[C@H](c2ccc(Br)cc2)[C@@H]2CN(Cc3ccccn3)CCCCN12	-49

Remaining list, next part.
SMILES	UUG fidelity
CCC(=O)N1C[C@H]2[C@@H](c3ccccc31)[C@H](CO)N2Cc1cc(F)ccc1F	-8
C[C@@H]1CN([C@@H](C)CO)C(=O)Cc2cc(NC(=O)NC3CCCCC3)ccc2O[C@H]1CN(C)Cc1ccc2c(c1)OCO2	18
CO[C@@H]1CN(C)C(=O)c2cc(NC(C)=O)ccc2OC[C@H](C)N(C(=O)C2CCOCC2)C[C@@H]1C	-5
C[C@H]1CN([C@@H](C)CO)C(=O)c2cc(NS(C)(=O)=O)ccc2O[C@H]1CN(C)C(=O)Nc1ccc(F)cc1	-3
Cc1noc(C)c1NC(=O)N(C)C[C@H]1OCc2cnnn2CCCC(=O)N([C@@H](C)CO)C[C@@H]1C	3
Cc1cc(C(=O)Nc2cccc3c2O[C@@H](CN(C)S(=O)(=O)c2cccs2)[C@@H](C)CN([C@H](C)CO)C3=O)n(C)n1	-1
COc1ccc(NC(=O)N(C)C[C@@H]2Oc3ccc(NC(=O)C4CCCCC4)cc3C(=O)N([C@@H](C)CO)C[C@H]2C)cc1	4
C/C=C/c1ccc([C@@H]2[C@@H](CO)N(C(=O)C3CC3)[C@H]2CN(C)C(=O)CC2CC2)cc1	-6
C[C@H]1CN([C@@H](C)CO)C(=O)c2cccc(NC(=O)Nc3cccc4ccccc34)c2O[C@H]1CN(C)S(=O)(=O)c1cccs1	-8
O=C(C[C@H]1CC[C@@H]2[C@H](COC[C@H](O)CN2C(=O)Nc2ccc(Cl)c(Cl)c2)O1)NCc1ccc(F)cc1	9
COc1ccc(CN2C[C@H](C)[C@@H](OC)CN(C)C(=O)c3cc(NC(C)=O)ccc3OC[C@@H]2C)cc1	-6
O=C(C1CC1)N1CCCCN2[C@H](CO)[C@H](c3ccc(-c4cccc(F)c4)cc3)[C@H]2C1	14
O=C(c1cccnc1)N1CCCCN2[C@H](C1)[C@H](c1ccc(C#Cc3ccccn3)cc1)[C@@H]2CO	37
C[C@@H]1CN([C@@H](C)CO)C(=O)Cc2cc(NS(C)(=O)=O)ccc2O[C@@H]1CN(C)C(=O)Nc1ccc(F)cc1	-4
CCCNC(=O)N1C[C@@H]2[C@H](c3ccccc31)[C@H](CO)N2C(=O)Nc1ccccc1F	0
CC=Cc1ccc2n(c1=O)C[C@H]1[C@H](CO)[C@@H](C(=O)N(C)C)[C@@H]2N1CC1CCOCC1 (mixture of isomers)	-5
O=C(C[C@@H]1CC[C@H]2[C@@H](COC[C@H](O)CN2C(=O)Nc2ccccc2)O1)NCCc1ccncc1	-11
CO[C@H]1CN(C)C(=O)c2ccc(NC(=O)Nc3ccccc3F)cc2OC[C@H](C)N(C)C[C@@H]1C	1
C[C@@H]1CN([C@@H](C)CO)C(=O)c2cc(NC(=O)CCC(F)(F)F)ccc2O[C@H]1CN(C)C(=O)Nc1ccccc1	-1
CO[C@@H]1CN(C)C(=O)c2ccc(NC(=O)NC(C)C)cc2OC[C@H](C)N(Cc2ccc(-c3ccccn3)cc2)C[C@@H]1C	-3
CCC(=O)Nc1ccc2c(c1)C(=O)N(C)C[C@H](OC)[C@H](C)CN[C@@H](C)CO2	-5
O=C(c1ccc2c(c1)OCO2)N1C[C@@H]2[C@H](c3ccccc31)[C@H](CO)N2Cc1cccnc1	-4
C[C@@H]1CN([C@@H](C)CO)C(=O)c2cc(NC(=O)Cc3ccccc3)ccc2O[C@@H]1CN(C)C	-3
C[C@H]1CN([C@@H](C)CO)C(=O)c2cc(NC(=O)Cc3ccccc3)ccc2O[C@H]1CN(C)S(=O)(=O)c1cn(C)cn1	-11
COc1cccc(C(=O)Nc2ccc3c(c2)OC[C@H](C)N(CCc2ccccc2)C[C@H](C)[C@H](OC)CN(C)C3=O)c1	35
CO[C@@H]1CN(C)C(=O)c2ccc(NC(=O)C3CC3)cc2OC[C@@H](C)N(Cc2nccs2)C[C@H]1C	-15
COCC(=O)Nc1ccc2c(c1)OC[C@H](C)N(Cc1ccccn1)C[C@@H](C)[C@H](OC)CN(C)C2=O	-12
C[C@H](CO)N1C[C@H](C)[C@H](CN(C)C(=O)Nc2ccc(F)cc2)Oc2ccc(NS(=O)(=O)c3ccc(Cl)cc3)cc2C1=O	9
O=C(c1cccc(F)c1)N1CCCCN2[C@H](C1)[C@H](c1ccc(-c3cncnc3)cc1)[C@@H]2CO	-9

Copied from the list:
In UUG fidelity, COCC(=O)Nc1ccc2c(c1)OC[C@H](C)N(Cc1ccccn1)C[C@@H](C)[C@H](OC)CN(C)C2=O is listed with -12
In UUG fidelity, CO[C@@H]1CN(C)C(=O)c2ccc(NC(=O)NC(C)C)cc2OC[C@H](C)N(Cc2ccc(-c3ccccn3)cc2)C[C@@H]1C is listed with -3
In UUG fidelity, O=C(c1cccc(F)c1)N1CCCCN2[C@H](C1)[C@H](c1ccc(-c3cncnc3)cc1)[C@@H]2CO is listed with -9
In UUG fidelity, COc1cccc(C(=O)Nc2ccc3c(c2)OC[C@H](C)N(CCc2ccccc2)C[C@H](C)[C@H](OC)CN(C)C3=O)c1 is listed with 35
In UUG fidelity, C[C@@H]1CN([C@@H](C)CO)C(=O)c2cc(NC(=O)Cc3ccccc3)ccc2O[C@@H]1CN(C)C is listed with -3
In UUG fidelity, CCC(=O)Nc1ccc2c(c1)C(=O)N(C)C[C@H](OC)[C@H](C)CN[C@@H](C)CO2 is listed with -5

Bioassay records (PubChem)
